A1 inh: inhibitors of the anti-apoptotic protein A1, read as caspase activation | MEF A1-2A-BIM cells, Caspase-Glo 3/7 luminescence, 3 h; percent of clofoctol response, vehicle zero | caspase activation, % (no concentration beside the values) | 0.066% of 330,000 active;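 active means over half of replicate activation scores above 10%, or exactly half above 10 with the replicate mean above 10; inconclusive means replicate mean below 10 yet half the replicates above 10; inactive means over half of replicates below 10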;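 further: wells of about 30 µL received 50 nL stock; many hits fall short of the cut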
Beta cell apopt: blocks beta cell apoptosis. INS-1E cytokine-induced death, ATP luminescence, 48 h; percent of positive-control rescue, neutral wells zero. protection from apoptosis, % (no concentration beside the values). 0.8% of 300,000 active;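 active means all replicates at 75% or more, or half of them and the mean; inconclusive means half reach 75% but not the mean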;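 further: 0% = cytokine-treated negative control wells and 100% = positive control rescue; higher means more ATP so stronger rescue from cytokine killing; wells of about 40 µL received 100 nL stock; the first replicate is given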
T cruzi repl: blocks replication of Trypanosoma cruzi. T. cruzi beta-gal in NIH3T3, luminescence, 90 h. inhibition, % (test concentration not listed). 1.4% of 300,000 active;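 active means mean inhibition across valid replicates above about 55%, limit read from the data; inconclusive means mean below that limit but half or more replicates reach it; inactive means mean below it, under half of replicates reach it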;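 further: signal also drops with host cell toxicity which is not excluded here; 0% = plate median of DMSO wells and 100% = zero luminescence signal; higher percent means less beta-gal luminescence so fewer parasites; stock transfer was 50 nL into about 50 µL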
MLL AF4-AF9 inh: MLL-AF4/AF9 protein interaction inhibition | inhibition, % at 10 µM | AlphaScreen, biotin-AF4 peptide binding to FLAG-AF9 | 0.47% of 350,000 active | P42568;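 active means every replicate reaching a set inhibition limit, whatever the replicate mean, cut at about 25% in these data; inconclusive means mean inhibition reaches that limit but some replicates miss it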;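 further: 0% = plate neutral control median and 100% = total signal loss; the record names both 10 and 1 µM as test concentration; the first replicate is given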
Target sequence (P42568 whole entry, looked up): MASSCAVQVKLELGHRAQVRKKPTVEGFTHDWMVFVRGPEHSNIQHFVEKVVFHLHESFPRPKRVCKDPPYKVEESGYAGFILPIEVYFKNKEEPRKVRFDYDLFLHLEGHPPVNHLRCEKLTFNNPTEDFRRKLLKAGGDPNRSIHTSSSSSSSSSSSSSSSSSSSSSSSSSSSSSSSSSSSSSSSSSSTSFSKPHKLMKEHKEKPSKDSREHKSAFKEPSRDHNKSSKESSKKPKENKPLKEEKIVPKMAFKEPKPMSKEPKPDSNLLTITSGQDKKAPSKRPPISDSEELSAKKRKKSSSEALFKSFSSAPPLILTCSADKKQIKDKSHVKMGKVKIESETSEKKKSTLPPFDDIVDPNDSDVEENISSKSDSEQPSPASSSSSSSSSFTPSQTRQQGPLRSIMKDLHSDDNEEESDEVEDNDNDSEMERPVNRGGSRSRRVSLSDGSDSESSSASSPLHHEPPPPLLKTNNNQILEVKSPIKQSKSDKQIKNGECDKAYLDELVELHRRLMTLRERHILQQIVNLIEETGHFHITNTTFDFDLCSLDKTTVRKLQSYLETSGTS
RanGTP-Impb inh: inhibitors of RanGTP-importin-beta interaction, primary screen, biochemical, FRET, CFP-Ran, YFP-importin-beta, homogeneous; cell-free CFP-Ran/YFP-importin-beta FRET ratio; inhibition, % (test concentration not listed); 1.1% of 300,000 active; AID 2216;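 active means most replicates above 15%; inconclusive means exactly half above 15%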;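 further: 0% = DMSO wells and 100% = Ran loaded with GDP instead of GTP; wells of about 40 µL received 100 nL stock; the first replicate is given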
LANA-H2A inh: blocks KSHV LANA binding to histone H2A/H2B. 0.6% of 320,000 active. inhibition, % (test concentration not listed). AID 2629. cell-free LANA-H2A/H2B peptide, fluorescence polarization; in the data active means inhibition mostly above about 10%, no sharp cut-off; inactive means mostly below about 6.7%;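 further: stock transfer was 7.5 nL into about 10 µL; 0% = median of vehicle wells and 100% = median of positive control wells; one replicate is shown; the record names a cut of 25% in any replicate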
Vif A3G: HIV-1 Vif–A3G interaction blockers – biochemical, TR-FRET, GST-Vif 1-94, biotin-A3G peptide, dose response retest, primary screen (AID 1117319) | TR-FRET GST-Vif / biotin-A3G peptide binding; higher % means a stronger effect; test concentration not given here; strong numbers were not always called active | one-dose inhibition, %; IC50 in µM for titrated hits | 0.57% of 260,000 active;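 active means above the screen mean plus three standard deviations and confirmed in dose response; inconclusive means results disagree or hit not tested in dose response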;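 further: Vif residues 1-94 fused to GST binding biotinylated APOBEC3G peptide 110-148; 0% = full assay without inhibitor and 100% = GST in place of GST-Vif; retest series ran down from 100 µM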
Calb FLC: affects C. albicans growth with fluconazole | C. albicans CaCi-2 (fluconazole-resistant clinical isolate) + fluconazole, Alamar Blue growth, 48 h | growth inhibition, % (concentration not given with the values) | 0.57% of 300,000 active;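 active means most replicates above 75%; inconclusive means exactly half above 75%; inactive means most below 75%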;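 further: all wells also contain fluconazole at 8 µg/ml as a sub-toxic cotreatment; 0% = median of DMSO wells and 100% = median of geldanamycin control wells; wells of about 8 µL received 7.5 nL stock; the first replicate is given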
Numbers without * were called inactive; u = inconclusive; x = not tested or not shown; & = joins results of further samples.

SMILES	A1 inh	Beta cell apopt	T cruzi repl	MLL AF4-AF9 inh	RanGTP-Impb inh	LANA-H2A inh	Vif A3G	Calb FLC
Nc1nc(Sc2ccc(C(F)(F)F)cn2)n[nH]1	0.1	-1	0	-1.0	-3.5	5.3	24%	-7
Cc1ccc(C(=O)OCC(=O)NCc2cccs2)cc1C	0.9	-2	-11	-1.3	-2.8	-2.2	10%	1
Cc1ccc(/C=C/C(=O)Nc2ccc(S(=O)(=O)Nc3onc(C)c3C)cc2)cc1	-0.1	2	5	-3.2	-2.8	1.9	x	1
COc1ccccc1CNCc1ccc(C)cc1	-0.9	x	-12	-1.2	0.1	1.5	x	-7
CCOc1cc(C(=O)OCC(=O)c2c(C)[nH]c3ccccc23)ccc1OCC(=O)N1CCOCC1	-0.4	9	18	x	1.0	0.4	15%	9
COc1ccccc1NS(=O)(=O)c1ccc(C(=O)N2CCN(c3ccccc3O)CC2)cc1	-1.1	9	1	3.2	1.2	-0.6	-7%	24
O=C(O)C1CCCCC1C(=O)NCCc1ccccc1 (stereo not drawn)	-0.2	-1	-2	x	1.4	-2.2	0%	1
Cc1cc(NC(=O)C(=O)NCc2cccc(Cl)c2)no1	0.1	1	3	x	1.4	7.7	6%	4
COc1cccc(C(=O)Nc2c[nH]c(=O)[nH]c2=O)c1	0.1	0	-4	-41	-1.5	7.2	-7%	3
CC(=O)N1CCN(C(=O)CNc2cc(C(F)(F)F)ccc2OCC(F)(F)F)CC1	0.0	-4	-4	x	0.5	0.9	u	2
CN(Cc1ccccc1)C(=O)COc1ccc(Br)cc1Cl	0.6	0	2	3.8	1.6	-0.2	x	27
CC(/C=N/NC(=O)Cn1cnc2ccccc21)=C\c1ccccc1	0.3	1	-28	-0.5	-0.4	1.9	11%	0
O=C(/C=C/c1cccs1)Nc1ccc([N+](=O)[O-])cc1	-1.7	9	-11	x	19*	0.6	25%	-3
COc1ccc(/C=N/NC(=O)c2ccc3nc[nH]c3c2)cc1	0.4	-5	4	-0.1	-2.2	-5.0	28%	-1
O=C(CCc1nnc2ccc(N3CCCC3)nn12)Nc1ccc(F)cc1F	0.9	-3	11	-0.1	2.3	-0.1	x	-15
CCOc1ccc(/C=N/Nc2nc(=O)[nH]nc2C)cc1OC	-0.2	-9	-10	x	3.2	-1.9	8%	6
Cc1nnc2ccc(Oc3ccc(-c4ccccc4)cc3)nn12	-1.1	92*	-106	x	u	3.3	-3%	u
N#Cc1cccc(NC(=O)COc2ccc(-n3ccnc3)cc2)c1	-0.5	-9	-10	x	2.5	-2.1	-2%	-7
C/C(=N\Nc1ncc(Cl)cc1Cl)c1ccc(OC(F)F)cc1	0.7	1	-8	x	-5.0	-3.2	x	u
CSc1ccccc1C(=O)C1CCCN(C(=O)c2ccc(N3CCOCC3)cc2)C1 (stereo not drawn)	0.3	-1	9	2.5	1.2	0.6	x	-4
O=C(NC1CCN(C(=O)NC2CCCCC2)CC1)c1ccco1	-0.4	-7	4	x	-1.9	0.9	1%	2
CCCCc1c(C)nc2ccccc2c1SCCC#N	-0.2	-15	-4	-2.3	-3.6	0.6	x	-26
CCc1c(C)nc(SCC(=O)c2cccs2)c(C#N)c1C	-1.4	6	19	x	6.9	0.4	-2%	-9
CCCc1cc(=O)oc2cc(C)cc(OCC(=O)NC(Cc3c[nH]c4ccc(O)cc34)C(=O)O)c12 (stereo not drawn)	-0.2	-2	-6	0.9	-0.1	-0.6	x	1
CCSC1=N/C(=C\c2ccc(OC)cc2)C(=O)N1	-0.4	-2	-7	15	6.8	1.8	-7%	-3
O=C(CSc1nc2ccccc2n1CCc1ccccc1)NC1CCS(=O)(=O)C1 (stereo not drawn)	-0.8	-6	-5	x	-1.8	-2.8	5%	-2
CN(C)c1ccc(P(=O)(OC2CCCCC2)C(O)c2cccnc2)cc1 (stereo not drawn)	-0.1	-5	-16	x	-1.8	1.8	2%	u
O=C(N/N=C/c1ccc2c(c1)OCO2)/C(=C/c1ccc2c(c1)OCO2)NC(=O)c1ccccc1	-0.4	0	-2	x	2.7	0.8	-1%	5
Nc1c(Cl)c(Cl)nc(C(=O)OCC(=O)NCc2ccccc2)c1Cl	0.6	-3	x	1.0	x	1.6	-11%	x
O=c1cc2c(nn1Cc1cccc(Cl)c1)-c1ccccc1CC2	0.4	-10	-4	x	u	0.6	-9%	-3

Filtered by structure: the compounds so far containing a thiophene ring, fused or not.
SMILES	A1 inh	Beta cell apopt	T cruzi repl	MLL AF4-AF9 inh	RanGTP-Impb inh	LANA-H2A inh	Vif A3G	Calb FLC
Cc1ccc(C(=O)OCC(=O)NCc2cccs2)cc1C	0.9	-2	-11	-1.3	-2.8	-2.2	10%	1
O=C(/C=C/c1cccs1)Nc1ccc([N+](=O)[O-])cc1	-1.7	9	-11	x	19*	0.6	25%	-3
CCc1c(C)nc(SCC(=O)c2cccs2)c(C#N)c1C	-1.4	6	19	x	6.9	0.4	-2%	-9

An excerpt from above, limited to Vif A3G and RanGTP-Impb inh:
compound | Vif A3G | RanGTP-Impb inh
Cc1cc(NC(=O)C(=O)NCc2cccc(Cl)c2)no1 | 6% | 1.4
COc1cccc(C(=O)Nc2c[nH]c(=O)[nH]c2=O)c1 | -7% | -1.5

Later entries.
SMILES	A1 inh	Beta cell apopt	T cruzi repl	MLL AF4-AF9 inh	RanGTP-Impb inh	LANA-H2A inh	Vif A3G	Calb FLC
COc1ccc([C@H]2/C=C\CN(C(=O)[C@H](Cc3ccccc3)NC(=O)OCC3c4ccccc4-c4ccccc43)CC(=O)N2Cc2ccc(F)cc2)cc1	-0.6	-1	17	-3.6	0.4	1.3	x	0
COc1ccc(C2Sc3nncn3N2Cc2ccc(C#N)cc2)cc1 (stereo not drawn)	0.1	0	-12	x	4.3	-1.6	11%	-4
CCOC(=O)c1ccc(NC(=S)NNC(C)(C)C)cc1	-0.4	-2	-25	0.5	0.0	-1.3	1%	-7
Cc1ccc(CNC(=O)c2ccc(N3CCC4(CC3)CC(c3ccccc3)=NO4)c(NC(=O)c3c(Cl)cccc3Cl)c2)cc1	-0.2	-5	11	-3.5	-5.0	0.2	x	-7
COc1ccccc1N(C)S(=O)(=O)c1ccc(C(=O)N2CCCC(C(F)(F)F)C2)cc1 (stereo not drawn)	0.0	x	17	x	5.0	-4.0	-4%	-7
Cc1ccc(NC(=O)C2CCCN2C(=O)OCc2ccccc2)cc1C (stereo not drawn)	-0.7	2	6	-1.7	-0.5	-0.6	6%	-7
Cc1ccc(-c2csc(/C(C#N)=C/Nc3ccccc3SC(F)(F)F)n2)c(C)c1	0.9	0	0	0.3	3.2	-2.0	x	4
CC(=O)c1ccc(NC(=O)C2Cc3ccccc3CN2C(=O)c2ccccc2)cc1 (stereo not drawn)	0.6	x	3	0.6	-1.4	2.9	x	1
O=C1c2ccccc2C(=O)c2c1cccc2N1CCOCC1	-0.7	2	1	x	-4.7	-1.2	15%	-2
CCOC(=O)c1c(C)n(C)c2ccc(OCC(O)Cn3nc(C)c(Br)c3C)cc12 (stereo not drawn)	0.2	4	14	x	2.9	0.2	-3%	20
COc1cc(C(=O)NC(=S)Nc2ccc3c(c2)C(=O)N(C)C3=O)cc(OC)c1OC	0.3	2	-11	-4.9	-2.2	-0.1	-1%	8
Cc1ccc(C(=O)Nc2ccc(NC(=O)c3cccs3)cc2)cc1[N+](=O)[O-]	0.5	5	-8	-2.9	1.1	0.4	21%	-6
COc1ccc(NC(=O)CN2C(=O)/C(=C3\SC(=S)N(C4CCS(=O)(=O)C4)C3=O)c3ccccc32)cc1 (stereo not drawn)	-0.4	x	-5	-1.4	1.9	1.7	0%	-5
COc1ccccc1N1CC(C)(C)C(=O)N(C(=O)c2ccc(Cl)cc2)C1=S	0.3	85*	-3	8.6	8.1	-2.3	u	4
O=C(Nc1ccc(N2CCN(C(=O)c3ccc(Cl)cc3)CC2)cc1)c1cc2ccccc2o1	-0.2	6	4	x	0.2	1.8	-8%	u
Cc1cnc(C(=O)OCC(=O)Nc2cc(-c3ccccc3)nn2-c2ccccc2)cn1	0.5	-2	-6	-2.1	-2.4	-0.3	x	-1
CCOCCCNc1nc2c(-c3ccccc3)nnn2c2ccccc12	-0.4	x	16	5.8	34*	-6.1	-10%	-2
Cc1ccc(C)c(N(CC(=O)NC2CCCC2)S(=O)(=O)c2ccccc2)c1	0.1	x	5	0.1	2.6	-1.6	-5%	1
O=[N+]([O-])c1ccc(/C=N/Nc2cc(Cl)nc(-c3ccccc3)n2)cc1	0.2	11	-1	x	0.0	2.2	9%	-6
CCc1ccccc1NC(=O)c1cnccn1	x	x	-23	x	1.2	x	u	-4
CCC(=O)N1N=C(c2cccs2)CC1c1ccc(C)cc1 (stereo not drawn)	-1.9	3	19	9.7	-1.0	-5.2	-5%	11
O=C(CCc1ccc(O)cc1)N/N=C/c1coc2ccccc2c1=O	0.7	-4	1	-1.0	2.3	-0.6	29%	19
CC(OC(=O)Cn1cnc2c1c(=O)n(C)c(=O)n2C)C(=O)NCc1ccccc1 (stereo not drawn)	0.1	-2	-4	-10	1.4	-17	3%	2
CCOC(=O)C1CCCCN1Cc1ccc(C(F)(F)F)cc1 (stereo not drawn)	0.7	-6	-7	x	-9.9	-1.2	6%	-2
O=C(NN1C(=O)C2C3C=CC([C@H]4CC34)[C@@H]2C1=O)c1ccc(Br)cc1 (stereo partly drawn)	-0.5	-5	3	-1.2	-0.1	2.7	x	3
CCc1cccc(NC(=O)c2cnn(-c3ccccc3)c2C)c1	-9.9	2	7	1.9	-1.0	-0.1	x	-14
CCCn1c(SCC(=O)Nc2nnc(-c3ccccc3)s2)nnc1-c1ccccn1	0.1	3	11	x	-4.9	-0.7	3%&-2%	-6
Cn1cccc1/C=C1\SC(=O)N(c2ccc(O)cc2)C1=O	0.1	-4	2	x	-32	6.7	4%	7
COc1ccc(/C=N/NC(C)(C)C)c(OC)c1	1.2	-8	-9	1.5	1.0	-0.3	7%	3
Cc1nc2scc(C)n2c(=O)c1S(=O)(=O)NCc1ccccc1Cl	2.3	-5	4	1.2	2.8	1.3	-1%	16
O=C(CNC(=O)c1ccc(Cl)cc1)NCC(F)(F)F	0.5	-3	-12	x	1.8	8.3	-2%	4
CCOc1cc(/C=N/O)ccc1OCc1ccc([N+](=O)[O-])cc1	0.1	2	3	-4.3	2.7	4.4	-2%	-1
COc1ccccc1CNC(=O)C1CCN(c2nc3ccccc3o2)CC1	-0.2	-1	-5	x	1.7	-0.8	0%	-24
CCCn1c(N2CCN(C(=O)Nc3ccccc3)CC2)nc2ccccc21	-0.5	5	9	2.1	-2.6	-3.4	x	-23

Compound activity deposited in PubChem by several laboratories.
